# Screening results: PubChem, several laboratories
# NCF1 inh: p47phox (human) inhibition. p47phox/p22phox peptide binding, fluorescence polarization, 2 h. P14598. hit rate 0.53% among 220,000. inhibition, % at 24.7 µM;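 active = inhibition above about 30%, limit read from the data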;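 also: 0% = p47phox with labelled peptide and 100% = labelled peptide alone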
# zVAD death inh: blocks zVAD induced death of L929 cells | L929 zVAD necroptosis rescue, ATP luminescence, 24 h; with zVAD 60 µM | viability rescue, % at 10 µM | hit rate 0.38% among 220,000;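 active = activation, scaled between plate controls, above about 75%, limit read from the data; inactive = activation under that limit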;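 also: 0% = zVAD with DMSO and 100% = DMSO alone without zVAD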
# 14-3-3 Bad PPI: disrupts binding of bovine 14-3-3 zeta to phospho-Bad peptide; P63103; TR-FRET 14-3-3zeta/Dy647-pBad peptide displacement, 1 h; inhibition, % at 21.7 µM; hit rate 0.71% among 220,000; AID 781;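 active = inhibition above about 70%, limit read from the data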;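 also: 0% = full 14-3-3 plus peptide FRET controls and 100% = background without 14-3-3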
# Target sequence (P63103 whole entry, looked up): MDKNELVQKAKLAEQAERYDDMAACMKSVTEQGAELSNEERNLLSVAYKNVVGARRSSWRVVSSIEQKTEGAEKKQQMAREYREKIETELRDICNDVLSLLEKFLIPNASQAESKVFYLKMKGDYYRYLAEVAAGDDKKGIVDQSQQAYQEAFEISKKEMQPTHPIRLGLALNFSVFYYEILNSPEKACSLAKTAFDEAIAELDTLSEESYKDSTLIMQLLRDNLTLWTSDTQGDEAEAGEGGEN
# Tb hexokinase: T. brucei hexokinase 1 inhibition; recombinant TbHK1, G6PDH-coupled NADH A340; hit rate 0.11% among 220,000; inhibition, % at 10 µM;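 active = inhibition of 50% or more in the single-dose primary screen; inactive = inhibition below 50%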
# Mdm2 ligase inh: Mdm2 E3 ligase (human) inhibition | Q00987 | cell-based MDM2 ubiquitination luciferase reporter, 2 h; 0 = plate control, 100 = twice control, blank-subtracted | signal enhancement, % at 5 µM | hit rate 0.11% among 210,000;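 active = signal enhancement of 30% or more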;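 also: luminescence tracks abundance of the self-degrading MDM2-luciferase fusion protein; higher signal means inhibition of MDM2 E3 ligase activity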
#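 Assay system: stable mammalian line carrying autodegrading MDM2–luciferase fusion reporter; amount: 2000 cells seeded into each well; buffer or medium: DMEM; benchmarks: plate control and blank wells; signal: luciferase luminescence; timing: 2 h compound exposure at 37 °C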
# Hck-Nef inh: human Hck-Nef kinase inhibition. P08631. Recombinant Hck-YEEI plus Nef, Z-Lyte FRET kinase assay. inhibition, % at 20 µM. hit rate 0.68% among 220,000. AID 463187;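 active = Hck-Nef kinase inhibition above about 50%, limit read from the data; inactive = inhibition below that limit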;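 also: 0% = DMSO with Hck plus Nef and 100% = Hck alone without Nef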
# Target sequence (P08631 whole entry, looked up): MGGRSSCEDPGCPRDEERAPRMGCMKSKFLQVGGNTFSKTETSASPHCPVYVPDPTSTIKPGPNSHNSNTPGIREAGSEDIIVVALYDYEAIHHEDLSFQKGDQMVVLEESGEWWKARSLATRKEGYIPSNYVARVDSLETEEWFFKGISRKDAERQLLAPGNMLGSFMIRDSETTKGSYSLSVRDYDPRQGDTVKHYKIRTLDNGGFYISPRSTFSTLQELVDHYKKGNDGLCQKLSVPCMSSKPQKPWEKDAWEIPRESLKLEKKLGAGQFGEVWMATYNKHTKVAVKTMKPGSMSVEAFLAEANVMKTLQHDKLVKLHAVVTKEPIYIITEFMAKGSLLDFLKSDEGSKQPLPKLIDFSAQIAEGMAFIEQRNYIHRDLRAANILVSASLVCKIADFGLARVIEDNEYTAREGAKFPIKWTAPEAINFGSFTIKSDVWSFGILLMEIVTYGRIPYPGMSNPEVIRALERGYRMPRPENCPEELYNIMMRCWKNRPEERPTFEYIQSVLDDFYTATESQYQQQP
# EBV gp42 inh: inhibitors of Epstein-Barr virus glycoprotein 42; Q1HVG2; Fluorescence polarization binding assay, mP read-out; inhibition, % (tested at 21.74 µM); hit rate 0.42% among 220,000; AID 1085; in the data active = inhibition above about 50%
# Target sequence (Q1HVG2 whole entry, looked up): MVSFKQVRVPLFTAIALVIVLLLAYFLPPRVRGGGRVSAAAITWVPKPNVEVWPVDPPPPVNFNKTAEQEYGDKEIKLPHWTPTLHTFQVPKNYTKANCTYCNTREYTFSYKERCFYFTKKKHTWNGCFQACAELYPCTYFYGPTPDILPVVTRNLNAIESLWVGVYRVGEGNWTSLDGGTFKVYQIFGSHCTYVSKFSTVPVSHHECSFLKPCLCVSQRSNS
# The depositor's hits bear a star; · = not tested or not shown; [ ] = remark or other dose.
smiles	NCF1 inh	zVAD death inh	14-3-3 Bad PPI	Tb hexokinase	Mdm2 ligase inh	Hck-Nef inh	EBV gp42 inh
CC(C)C(NS(=O)(=O)c1cccs1)C(=O)NCCN1CCN(c2ccccc2)CC1 (stereo not given)	-2	0.0	0[fluorescence artefact?]	0	-15	-1	-3
NNC(=O)c1cc2c(s1)CCCCCC2	-8	0.4	0	0	-23	-1	3
O=[N+]([O-])c1cccc(-c2nnn(C34CC5CC(CC(C5)C3)C4)n2)c1	-17	1.3	9	3	-2	0	-13
Cc1ccc(Nc2nc(N3CCOCC3)nc(N3CCOCC3)n2)cc1	0	1.3	3[fluorescence artefact?]	0	-62	0	-17
CCCCc1oc2ccccc2c1C(=O)c1cc(I)c(OCCN(CC)CC)c(I)c1	12	31	19	63*	·	-2	-3
Cc1cc(/C=C2\SC(=S)N(Cc3ccco3)C2=O)c(C)n1-c1cccnc1	-153	0.0	-1	-19	-5	-2	122*
CCc1c(C)nc2c(C#N)c(C)[nH]n2c1=O	-10	0.0	-7	-3	-63	-1	-19
Cc1ccc2nc(NC(=O)c3ccccn3)sc2c1	-5	-0.6	-12	-9	-88	9	0

# Next section
smiles	NCF1 inh	zVAD death inh	14-3-3 Bad PPI	Tb hexokinase	Mdm2 ligase inh	Hck-Nef inh	EBV gp42 inh
O=C(OCc1ccccc1)c1cccc(-c2nnc(-c3ccccc3)o2)c1	-8	0.4	7	2	-14	2	1
CCCc1nc(SCC(=O)Nc2nc3c(s2)CCCC3)c2ccccc2n1	-7	-0.2	-6	-2	-8	-1	-30
CCOc1c2ccc(C(=O)NCc3ccc(OC)cc3)cc2nn1CCOC	-12	0.2	27	-3	3	0	-6
COc1ccc(C2C(=O)N(C3CCCCC3)CC(=O)N2CC2COc3ccccc3O2)cc1 (stereo not given)	-8	-0.1	-1	0	2	1	-12
COC(=O)C1=C(NC(=O)c2ccc(C)cc2)CCS1	-4	0.1	-14	16	-20	3	-20
N#Cc1cc2c(nc1SCC(=O)O)CCCC2	-10	0.7	1	-7	-10	0	2
CCN=C1S/C(=C\c2ccc(Sc3ccc(Cl)cc3)o2)C(=O)N1CC	-18	-0.4	-1	10	-24	3	-10
COC(=O)c1ccccc1NC(=O)Oc1ccc(F)cc1	-8	-0.2	-11	-1	2	0	5

# Later entries
smiles	NCF1 inh	zVAD death inh	14-3-3 Bad PPI	Tb hexokinase	Mdm2 ligase inh	Hck-Nef inh	EBV gp42 inh
N#Cc1c(N2CCCC(O)C2)nc(N)c2c(N)nc3c(c12)CC(=O)N3C12CC3CC(CC(C3)C1)C2 (stereo not given)	-9	1.8	1	-10	-20	1	-21
Cc1ccc(-c2cc(N)n3nc(-c4ccc(C)cc4)cc3n2)cc1	-16	0.4	7	-19	-6	1	3
CCOC(=O)N1CCN(Cc2nc(-c3ccc(Cl)cc3)no2)CC1	-5	-0.1	-10	-4	-17	1	-6
O=C(CSc1n[nH]c(-c2cccs2)n1)N1CCCc2ccccc21	-9	-0.1	-8	0	-16	-1	-3
CCc1ccc(CSc2nccn2-c2ccccc2)cc1	-9	-0.6	-7	4	-11	1	-5
CCOC(=O)Cc1c(C)nc2c(-c3ccccc3)c(-c3ccccc3)[nH]n2c1=O	-38	0.1	-4	-3	-10	3	-4
Cc1ccc(-c2nc3ccccc3[nH]2)cc1NC(=O)c1sc2ccccc2c1Cl	-1	1.1	7[fluorescence artefact?]	-10	-10	0	17
O=c1cc(C(F)(F)F)[nH]c(=O)n1C1CCCCC1	-1	0.0	16	0	-8	1	-13

# The listing continues.
smiles	NCF1 inh	zVAD death inh	14-3-3 Bad PPI	Tb hexokinase	Mdm2 ligase inh	Hck-Nef inh	EBV gp42 inh
CCCCC1S/C(=N/N=C/c2ccc(OC)cc2)N(Cc2ccc(OC)cc2)C1=O (stereo not given)	-4	0.1	0	-14	-12	0	-27
COc1ccc(Cl)cc1S(=O)(=O)N1CCN(C(=O)c2cc(OC)c(OC)c(OC)c2)CC1	-4	0.1	-3	-12	-2	2	-3
O=C(CSCc1ccc(Cl)cc1)Nc1ccc2c(c1)OCCO2	3	-0.2	-4	1	-15	1	2
CC1Cc2ccccc2N1C(=O)C1CCCN(S(=O)(=O)c2cccc3nsnc23)C1 (stereo not given)	-7	0.0	19[fluorescence artefact?]	-5	-6	1	28
COc1ccc(OCC(=O)NNC(=O)c2ccccn2)cc1	-3	0.4	7	8	-5	0	-12
Cc1cccc(/C=N/NC(=O)c2cccc([N+](=O)[O-])c2)n1	-14	-0.2	-18	-7	14	21	-14
COC(=O)c1ccc(CNC(=O)CSc2nc3sc(C)c(C)c3c(=O)n2C)o1	-7	-0.6	-9	-5	-10	7	-15
Cc1cc2c(ncn2Cc2ccccc2)c([N+](=O)[O-])c1C	-8	0.5	11	1	-8	-2	-3

# The last two entries of the section above open the next one.
mol,NCF1 inh,zVAD death inh,14-3-3 Bad PPI,Tb hexokinase,Mdm2 ligase inh,Hck-Nef inh,EBV gp42 inh
COC(=O)c1ccc(CNC(=O)CSc2nc3sc(C)c(C)c3c(=O)n2C)o1,-7,-0.6,-9,-5,-10,7,-15
Cc1cc2c(ncn2Cc2ccccc2)c([N+](=O)[O-])c1C,-8,0.5,11,1,-8,-2,-3
O=C(Cn1cccc1)NCc1cccs1,-13,-0.2,4,-3,-2,-4,-24
COC(=O)c1[nH]c2ccc(C)cc2c1NC(=O)CN1CCN(Cc2ccccc2)CC1,-3,0.8,-2[fluorescence artefact?],-1,9,1,-23
CC(C)CN(C(=O)COC(=O)c1cc2ccccc2oc1=O)C1CCS(=O)(=O)C1 (stereo not given),-7,-0.1,13,-9,-2,-10,-10
Cc1ccc(C(=O)C2(C)C3c4cc(Br)ccc4OC(=O)C32C(=O)c2ccco2)cc1 (stereo not given),-9,0.5,-7,0,1,0,18
CN(C)S(=O)(=O)Oc1ccsc1C(=O)Nc1ccc(Cl)cc1,0,-0.3,-12,-1,-15,0,4
Cn1nnnc1SCC(=O)Nc1ccccc1[N+](=O)[O-],2,0.6,3,2,0,1,-14
CC1Cc2cc(/C(O)=C3/C(=O)C(=O)N(CCN4CCOCC4)C3c3cccc(Cl)c3)ccc2O1 (stereo not given),4,-0.1,4,-11,-13,-1,-7
N#Cc1cc([N+](=O)[O-])c(-n2nnc3ccccc32)c([N+](=O)[O-])c1,3,0.3,7,-8,10,-1,-7
Cn1cccc1CNC(=O)Nc1ccc(Cl)c(Cl)c1,1,0.0,-7,3,-21,-1,1
CC1(C)OC(=O)N(c2ccccn2)C1(C)O (stereo not given),-9,2.5,0[fluorescence artefact?],7,0,1,-4
Cc1cc(NC(=O)CSCCO)no1,0,-0.1,-1,-1,-15,3,-1
CC(Sc1ncnc2ccccc12)C(=O)Nc1ccc2c(c1)OCO2 (stereo not given),-5,-0.4,-3[fluorescence artefact?],-10,-14,0,25

# Additional structures.
mol,NCF1 inh,zVAD death inh,14-3-3 Bad PPI,Tb hexokinase,Mdm2 ligase inh,Hck-Nef inh,EBV gp42 inh
CCOc1ccc(-n2c(Cc3ccccc3)nnc2SCc2c(C)noc2C)cc1,-2,-0.4,2,49,-2,1,5
Cc1c(NC(=O)OCCNC(=O)COc2c(Cl)cccc2Cl)sc(=S)n1C,-10,-0.3,26,-10,-2,-1,-18
COc1ccc(C(CC(=O)Nc2ccc(F)cc2)c2ccccc2)cc1 (stereo not given),-16,-0.1,-4,6,1,1,-11
COc1ccc(Cl)cc1NC(=O)C1CCCN(c2cc(C)nc3ncnn23)C1 (stereo not given),-1,0.3,4,3,-14,2,-3
Cc1oc(-c2cccc(Cl)c2)[n+]([O-])c1C,-16,-0.1,27[fluorescence artefact?],2,-8,2,-17
Cc1ccc(S(=O)(=O)N(C)c2cc(S(=O)(=O)N3CCC(C)CC3)c(C)cc2C)cc1,1,-0.1,6,0,-9,-1,-3
CCOc1ccc(N2CC(=O)N(c3ccc(OCC)cc3)CC2=O)cc1,1,-0.1,4,5,-1,2,-25
COc1ccc(/C=C2\N=C(SC)SC2=O)cc1OC,0,0.1,31,-10,0,3,1
O=C(Nc1ncc2c(n1)-c1ccccc1CC2)c1ccc(Cl)cc1,-10,1.2,6,-5,-10,0,0
Cc1cccc(NC(=O)CSc2n[nH]c(-c3ccncc3)n2)c1,-8,-0.2,7,0,-15,2,-19
CC(=O)Nc1cccc(NC(=O)c2cc(-c3cccnc3)nc3ccc(Br)cc23)c1,-23,3.5,-8,-12,-3,2,-1
CC(/C=N/NC(=O)c1n[nH]c2c1CCC2)=C\c1ccccc1,-7,0.1,-6,-16,·,-2,-4

# (list continues)
mol,NCF1 inh,zVAD death inh,14-3-3 Bad PPI,Tb hexokinase,Mdm2 ligase inh,Hck-Nef inh,EBV gp42 inh
CCC(CC)C(=O)N(c1ccc(F)cc1)C1C=CS(=O)(=O)C1 (stereo not given),-9,1.1,-10,41,-5,1,3
CN(CCC#N)CC(=O)Nc1ccc(NC(=O)CN(C)CCC#N)cc1,3,0.5,9,7,-10,2,-11
Cc1ccc(Cc2cnc(N3C(=N)SC(C)C3=O)s2)cc1 (stereo not given),-6,0.7,-16,-5,1,-2,10
CCCOc1ccc(C(=O)Nc2ccc(C)cc2[N+](=O)[O-])cc1,-11,-0.1,0,-2,-6,3,-9
O=C(COc1ccc(F)cc1)Nc1nnc(-c2ccncc2)s1,-33,0.2,-9,2,-11,1,0
COc1ccc(S(=O)(=O)N2c3cc(C)ccc3OCC2C(C)(C)C)cc1 (stereo not given),2,0.2,-4,1,-12,1,-12
Cc1cc2n(n1)SC(Nc1ccccc1)N2 (stereo not given),-54,0.0,-3,24,-16,2,-28
CCOc1c2ccc(C(=O)NCc3ccc(C)cc3)cc2nn1CCOC,6,0.8,0,0,-12,1,-10
CCC(=O)Nc1ccc(/C(C)=N\NC(=O)c2ccc(C)s2)cc1,5,0.9,0,-9,-12,-1,-10
Cc1cc(C)c(S(=O)(=O)Nc2c(C)[nH]c(=O)[nH]c2=O)c(C)c1,-1,-0.2,-4[fluorescence artefact?],3,-8,1,-2
O=[N+]([O-])c1cc(Cl)c(O)c2ncccc12,16,-0.8,1,9,-3,29,-35
O=C(O)c1cc([N+](=O)[O-])cc2c1nnn2O,-3,0.9,2,-3,-12,25,-5

# Further records
mol,NCF1 inh,zVAD death inh,14-3-3 Bad PPI,Tb hexokinase,Mdm2 ligase inh,Hck-Nef inh,EBV gp42 inh
CC(=O)Nc1ccc(S(=O)(=O)NCCN2CCOCC2)cc1,-4,0.1,7,1,-14,-4,-4
CCOc1cc(NC(=S)Nc2cccc(OC)c2)c(OCC)cc1NC(=O)c1ccc(C)cc1,-4,0.0,-1,-7,-3,0,12
COc1ccc(CCNc2nc(-c3ccco3)cc(C(F)(F)F)n2)cc1OC,-15,6.7,2,-14,-11,2,-16
COc1ccc(/C=N/NC(=O)c2sccc2OCc2ccc(F)cc2)cc1OC,-7,0.2,-4,-14,-31,0,-17
O=C(Oc1c(Cl)cc(Cl)c2cccnc12)c1ccco1,7,0.9,11,2,-16,4,-5
COC(=O)c1nnn(-c2nonc2N)c1CSc1nc2ccccc2o1,-21,0.2,-2,-3,-13,2,-7
O=C(Nc1cccc(Cl)c1N1CCCC1)c1cccc(-c2cc3ccccc3oc2=O)c1,-40,0.7,-5,-23,-17,1,-23
O=C(O)Cc1ccc(NC(=O)C2CCCCC2C(=O)O)cc1 (stereo not given),-14,0.1,32,34,-2,3,-14
O=C1Nc2ccc([N+](=O)[O-])cc2C1(O)N1CCCCCC1 (stereo not given),-17,1.1,24,-31,-11,1,-8
COC(=O)CSc1nc(NC#N)nc(NC(C)C)n1,-15,0.1,25,-2,7,0,-10
CCOC(=O)C1CCN(C(=O)C2CCN(c3nc4ccc(OC)cc4s3)CC2)CC1,-14,0.5,3,-11,-12,2,-12
CC(=O)NC1CC2CCCC(C1)N2C(=O)Nc1ccccc1 (stereo not given),-15,0.5,4,-1,-31,0,-13

# Profiles, quoted from the list.
# Record of CCOc1cc(NC(=S)Nc2cccc(OC)c2)c(OCC)cc1NC(=O)c1ccc(C)cc1 → NCF1 inh = -4; zVAD death inh = 0.0; 14-3-3 Bad PPI = -1; Tb hexokinase = -7; Mdm2 ligase inh = -3; Hck-Nef inh = 0; EBV gp42 inh = 12
# Record of O=C1Nc2ccc([N+](=O)[O-])cc2C1(O)N1CCCCCC1 (stereo not given) → NCF1 inh = -17; zVAD death inh = 1.1; 14-3-3 Bad PPI = 24; Tb hexokinase = -31; Mdm2 ligase inh = -11; Hck-Nef inh = 1; EBV gp42 inh = -8

# This is a subset, so the mix of outcomes need not match the whole.
